JMJD2A Tudor: inhibitors of human JMJD2A Tudor domain; AlphaScreen JMJD2A-Tudor / H3K4me3 peptide binding; Potency, µM (series often up to 114 µM), without a hit: top-dose activity change, negative = inhibition, usual class: inhibitors; 390,000 compounds, 4.4% hits; note: % is set by controls: 0 for no effect and ±100 for the full control effect; nearly all actives have a fitted effect of over 50% in size
G9a inh: inhibitors of human histone lysine methyltransferase G9a; 350,000 compounds, 8.8% hits; G9a H3K9 monomethylation, AlphaScreen, 2 h; Potency, µM (top dose mostly 102 µM), for inactives: at the top dose activity, negative = inhibition, actives largely listed as inhibitors; Q96KQ7; note: % is set by controls: 0 for no effect and ±100 for the full control effect; nearly all actives have a fitted effect of over 75% in size
Target sequence (Q96KQ7 913-1193 limits assumed): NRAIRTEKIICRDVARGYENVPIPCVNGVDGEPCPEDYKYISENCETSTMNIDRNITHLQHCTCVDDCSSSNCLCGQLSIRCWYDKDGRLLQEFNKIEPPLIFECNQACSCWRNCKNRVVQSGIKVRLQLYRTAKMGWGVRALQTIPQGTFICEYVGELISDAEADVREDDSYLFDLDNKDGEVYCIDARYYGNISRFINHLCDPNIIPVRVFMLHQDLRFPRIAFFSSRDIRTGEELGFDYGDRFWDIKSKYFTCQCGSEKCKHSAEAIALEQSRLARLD
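AlphaScreen detection with an anti-monomethyl H3K9 antibody quantified product after a 2 h room-temperature reaction containing 500 nM biotinylated H3K9 peptide, 20 µM SAM and 20 nM enzyme, which had been preincubated 15 min with compound.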
POLB inh: inhibitors of human DNA polymerase beta; Pol beta primer extension/strand displacement, fluorescence kinetic; Potency, µM (series often up to 114 µM), for inactives: at the highest dose activity change, negative = inhibition, hits mostly inhibitors; 340,000 compounds, 1.3% hits; AID 485314; note: % is set by controls: 0 for no effect and ±100 for the full control effect
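Reaction started by 50 nM substrate onto compound-treated Pol beta (10 nM, 15 min preincubation, room temperature); plates read at 0 min and 10 min. Normalized concentration-effect data fitted by four-parameter Hill equation.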
POLH inh: DNA polymerase eta (human) inhibition. Q9Y253. recombinant Pol eta, fluorescent DNA replication assay. Potency, µM (titrated, usually from 114 µM), without a hit: at the highest dose activity change, negative = inhibition, actives largely listed as inhibitors. 390,000 compounds, 1.2% hits; note: % is set by controls: 0 for no effect and ±100 for the full control effect
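Pol eta (10 nM) was preincubated with compounds for 15 min at room temperature, after which fluorescent replication substrate (50 nM final) was added to start the reaction. Fluorescence was read kinetically at 0 and 10 min.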
APEX1 inh: APE1 (human) endonuclease inhibition. P27695. recombinant APE1, TAMRA/BHQ-2 abasic DNA cleavage fluorescence. Potency, µM (top dose mostly 65.8 µM), without a hit: at the top dose activity change, negative = inhibition, most hits filed as inhibitors. 350,000 compounds, 0.35% hits;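 note: plate controls were vehicle for no effect and reference inhibitor for full effect; nearly all actives have a fitted effect of over 55% in size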
Target sequence (P27695 whole entry, looked up): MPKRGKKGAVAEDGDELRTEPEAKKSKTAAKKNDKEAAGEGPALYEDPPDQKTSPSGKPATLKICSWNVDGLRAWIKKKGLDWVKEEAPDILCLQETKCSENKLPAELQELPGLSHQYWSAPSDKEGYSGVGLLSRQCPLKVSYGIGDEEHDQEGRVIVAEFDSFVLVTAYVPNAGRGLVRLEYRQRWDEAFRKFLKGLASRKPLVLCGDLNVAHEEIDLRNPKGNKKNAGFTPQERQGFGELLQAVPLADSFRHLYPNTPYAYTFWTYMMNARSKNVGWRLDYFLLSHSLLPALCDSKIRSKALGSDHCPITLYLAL
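Enzyme (0.75 nM final) and test compound are incubated 15 min at room temperature before adding 50 nM quenched THF abasic-site duplex. Cleavage dequenches TAMRA, followed at 525/598 nm over three reads one minute apart.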
Pol iota inh: DNA polymerase iota (human) inhibition; 390,000 compounds, 1% hits; Q9UNA4; Pol iota fluorescent replication assay, 10 min; Potency, µM (highest dose often 115 µM), without a hit: at the top dose activity, negative = inhibition, most hits filed as inhibitors
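Pol iota at 10 nM preincubated 15 min with compounds at room temperature; reaction started with fluorescent substrate, 50 nM final. Fluorescence read kinetically at 0 and 10 min; buffer-only wells as negative control.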
BLM inh: inhibitors of human Bloom syndrome helicase BLM | P54132 | recombinant BLM DNA unwinding, fluorescence dequenching | 350,000 compounds, 0.2% hits | AID 2528 | Potency, µM (top dose mostly 56.1 µM), for the others: at the top dose activity change, negative = inhibition, usual class: inhibitors;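 note: plate controls were vehicle for no effect and no enzyme for full effect; nearly all actives have a fitted effect of over 35% in size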
Pol kappa inh: DNA polymerase kappa (human) inhibition. purified Pol kappa, fluorescent DNA synthesis assay, 10 min. Potency, µM (titrated, usually from 107 µM), for inactives: top-dose activity, negative = inhibition, most hits filed as inhibitors. 400,000 compounds, 0.53% hits. AID 588579; note: % is set by controls: 0 for no effect and ±100 for the full control effect
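Kinetic fluorescence readout at 0 and 10 min followed reaction start with substrate at 50 nM final. Beforehand, enzyme (10 nM Pol kappa) stood 15 min with compound at room temperature; buffer-only wells were negative controls.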
Numbers without * were called inactive; ? = inconclusive; / = not tested or not shown; & = joins results of further samples; [ ] = remark or other dose. Calls come from the whole dose curve; as a rule, active = well fitted curve in the direction sought with a large enough effect; inconclusive = small, poorly fitted or top-dose-only effect, or another doubt; inactive = no such curve, though single readings can be large; an effect the other way counts as inactive or inconclusive. Potency is the fitted concentration of half-maximal effect. Only part of the results is shown; count on the stated rates, not on these rows.

SMILES | JMJD2A Tudor | G9a inh | POLB inh | POLH inh | APEX1 inh | Pol iota inh | BLM inh | Pol kappa inh
C=CCN(CC=C)C(=O)Nc1ccc2nc(C)sc2c1 | -21% | -15% | -14% | -14% | -1% | 19% | -2% | 8%
Cc1c(C(=O)Nc2ccccc2F)sc2ncn(CC(=O)N3CCOCC3)c(=O)c12 | -21% | 25% | 0% | -13% | -11% | -8% | -2% | -13%
Cc1ccc(NCc2nnc(SCC(=O)c3ccccc3)n2Cc2ccco2)c(C)c1 | ? | ? | ? | ? | -6% | ? | -13% | -33%
CC1Cc2ccccc2N1CC(=O)Nc1ccc(Cl)c(S(=O)(=O)N(C)C)c1 (stereo not given) | -19% | 28µM* | 12% | -14% | -8% | 161%[activator] | -11% | -9%
Cc1ccc(C)c(N2CCN(C(=O)Cn3cccc3)CC2)c1 | ? | 50µM* | 5% | -7% | -2% | 14% | -10% | 1%
COc1cc(NC(=S)N2CCN(C/C=C/c3ccccc3)CC2)cc(OC)c1 | ? | -7%[59 µM] | 12% | -29% | -3% | -3% | -6% | -19%
CCN1C(=O)c2ccccc2Sc2ccc(NC(=O)Nc3ccc(C(C)=O)cc3)cc21 | ? | ? | ? | 3% | / | 1% | -20% | -36%
Nc1nnnn1CC(=O)N/N=C/c1ccccn1 | ? | 9% | 2% | -21% | 6% | 73%[activator] | 0% | -3%
COC(=O)CCC(=O)Nc1cccc([N+](=O)[O-])c1 | -14% | 4% | 13% | -10% | -3% | 0% | 3% | -13%
COc1ccc(OC)c(C(=O)CSc2nnc(-c3cccs3)n2C)c1 | -4% | -3%[12.7 µM] | 13% | -16% | -1% | 5% | 0% | 0%
O=C(COc1ccc(Cl)cc1Cl)NNC(=S)NCc1ccco1 | ? | / | 37% | -6% | 8% | 5% | -5% | -3%[60.1 µM]
O=C(c1ccccc1)c1cc(-c2ccccc2)on1 | 36%[activator] | 60%[activator][59 µM] | 0% | -18% | 3% | 0% | -14% | -3%
CCOc1ccc(NC(=O)COC(=O)C23CC4CC(CC(C4)C2)C3)c([N+](=O)[O-])c1 | ? | ? | 7% | -11% | 0% | 0% | 2% | -4%
CN(C)/N=C/c1ccc([N+](=O)[O-])cc1[N+](=O)[O-] | ? | 11µM* | 10% | -6% | 3% | 140%[activator] | -7% | 2%
Cc1c(C(=O)N2CCC(C)CC2)c(S(=O)(=O)N2CCN(c3ccc(Cl)cc3)CC2)c(C)n1C | ? | -48%[59 µM] | 2% | -8% | / | 13% | -3% | -8%[60.1 µM]
CCN(CC)CC(=O)Nc1ccc2c(c1)Nc1ccccc1CC2 | ? | 18µM* | 21% | -17% | 8% | 10% | -11% | -10%
COc1ccc(Nc2oc(COc3ccc(OC)cc3)nc2C#N)cc1 | ? | 11µM* | -26% | -16% | 3% | 23% | -8% | -5%
Nn1c(SCc2cc([N+](=O)[O-])cc3c2OCOC3)nnc1-c1ccccn1 | ? | -14% | 3% | -13% | 3% | 40%[activator] | 3% | -7%
C=C(C)CN=c1scc(C)n1/N=C/c1ccco1 | ? | -4%[59 µM] | 9% | 0% | 21% | 16% | -5% | -24%
CN(Cc1ccccc1)C(=O)c1ccc2c(c1)OCCO2 | 10% | 11%[59 µM] | -2% | -17% | 16% | -9% | 1% | -1%
COc1ccc2c(/C=N/NS(=O)(=O)c3ccc(C)cc3)c[nH]c2c1 | ? | / | 9% | -15% | 9% | ? | -10% | -12%
CCc1ccc(NC(=O)CSc2nnc(Cc3cccn3C)n2-c2ccc(OC)cc2)cc1 | ? | ? | 1% | -21% | -10% | 29% | -7% | -2%
COc1ccc(CN(C)C2CCCCC2)cc1 | ? | -41%[2.33 µM] | 5% | -4% | ? | -8% | 4% | -3%
CN(C)/C=C/C(=O)c1nnn(C2CCCCC2)c1NC1CCCCC1 | -29% | -1%[59 µM] | -28% | -9% | -3% | 14% | -11% | -8%
CCCOc1ccc(-c2nc(C#N)c(N3CCN(C)CC3)o2)cc1 | -30% | ? | -17% | -15% | 2% | -11% | -5% | -12%
O=C1CC(N2CCN(c3ccccc3)CC2)C(=O)N1Cc1ccc(Cl)cc1 (stereo not given) | -35% | 3%[59 µM] | 2% | -13% | 21% | ? | -12% | -12%
CCc1nc2c(n1O)CCc1nonc1-2 | -19% | 7%[59 µM] | 17% | -4% | 0% | -4% | 0% | -11%
COc1ccc(-n2c(=S)[nH]c3cc(C(=O)NCCCN4CCCC4=O)ccc3c2=O)cc1OC | ? | 35µM* | -2% | -8% | 1% | 9% | 1% | 6%
CCOC(=O)/C(C#N)=C/c1cc2ccc(C)cc2nc1Cl | -9% | ? | -1% | -6% | 3% | -6% | -4% | -4%
Cc1ccc(S(=O)(=O)N(CC(=O)NCC2CCCO2)c2cccc([N+](=O)[O-])c2)cc1 (stereo not given) | -8% | / | 29% | -21% | 18% | 34%[activator] | -2% | 2%
CN(C)C(=O)c1ccc(NC(=O)COc2cccc(Oc3ccccc3)c2)cc1 | -4% | 31% | 8% | -4% | 13% | 15% | -4% | 5%
CC1=CC(C)(C)Nc2ccc(OS(=O)(=O)c3ccc(C)cc3)cc21 | ? | 13µM* | -7% | -22% | 28% | 24% | 3% | -7%
O=c1c2oc3ccccc3c2n(Cc2ccccc2)c(=O)n1Cc1ccco1 | -7% | 4%[59 µM] | 11% | -10% | / | 12% | -1% | 8%
COc1cc(S(=O)(=O)Nc2cccc3cn[nH]c23)c(OC)cc1C | -8% | -31% | -4% | -12% | -12% | 9% | -4% | 19%
O=C(NCC(c1cccnc1)N1CCN(c2ccc(F)cc2)CC1)OCc1ccccc1 (stereo not given) | -32% | ? | 15% | -11% | 3% | 11% | -1% | -11%
CCC1=NN(C(=O)c2cccc([N+](=O)[O-])c2)C(O)(c2ccc(C)cc2)C1 (stereo not given) | ? | -8%[59 µM] | 9% | -14% | -2% | -10% | -1% | 0%

A second format for some results above.
canonical_smiles	JMJD2A Tudor	G9a inh	POLB inh	POLH inh	APEX1 inh	Pol iota inh	BLM inh	Pol kappa inh
CCOC(=O)/C(C#N)=C/c1cc2ccc(C)cc2nc1Cl	-9%	?	-1%	-6%	3%	-6%	-4%	-4%
Cc1ccc(S(=O)(=O)N(CC(=O)NCC2CCCO2)c2cccc([N+](=O)[O-])c2)cc1 (stereo not given)	-8%	/	29%	-21%	18%	34%[activator]	-2%	2%
CN(C)C(=O)c1ccc(NC(=O)COc2cccc(Oc3ccccc3)c2)cc1	-4%	31%	8%	-4%	13%	15%	-4%	5%
CC1=CC(C)(C)Nc2ccc(OS(=O)(=O)c3ccc(C)cc3)cc21	?	13µM*	-7%	-22%	28%	24%	3%	-7%

Additional records:
SMILES | JMJD2A Tudor | G9a inh | POLB inh | POLH inh | APEX1 inh | Pol iota inh | BLM inh | Pol kappa inh
O=c1cc(C23CC4CC(CC(C4)C2)C3)[nH][nH]1 | -16% | -8%[59 µM] | 2% | -11% | -4% | ? | -6% | -5%
CCOC(=O)c1sc(=S)n(Cc2ccccc2)c1N | ? | ? | -23% | -18% | -7% | ? | -12% | -5%
Fc1ccc(-c2nc(Nc3cccc(C(F)(F)F)c3)nc3c2COc2ccccc2-3)cc1 | ? | 3.5µM* | -1% | -17% | / | ? | -18% | -29%
O=[N+]([O-])c1ccc(Sc2ccccc2Cl)nc1 | ? | ? | 6% | 2% | -4% | -7% | -17% | 2%
O=S1(=O)N=C(Nc2nc3c(s2)CCCC3)c2ccccc21 | 16%[11.4 µM] | ? | 35%[activator] | -12% | -1% | -3% | 2% | -18%
Cc1cccc(NCCC(=O)c2ccc([N+](=O)[O-])cc2)c1C | ? | ? | -28% | -18% | 2% | 9% | -4% | 4%
Cc1ccccc1CNC(=O)CCCn1ncn2c(cc3occc32)c1=O | 2%&-15% | 1%&-2%[59 µM] | -14%&-1% | -6%&-16% | 13% | 6%&38% | 2%&3% | 1%&-21%
Cc1cccc(C)c1Nc1c(-c2ccc(N3CCOCC3)cc2)nc2ncccn12 | ? | 8.9µM* | 36%&-2% | -22%&-6% | 27% | -12%&44% | -3%&-16% | -3%&22%
Brc1ccc(/C=N/Nc2ccccc2)cc1 | ? | -18%[2.33 µM] | 7% | 0% | -2% | -2% | -3% | -3%
O=C(Nc1ccc2c(c1)OCO2)c1n[nH]c(=O)c2ccccc12 | ? | -7%[12.7 µM] | ? | -16% | -2% | ? | -12% | -24%
CC(C)[C@H](CO)N(Cc1cccc(F)c1)c1nc(Nc2cccc(Cl)c2)c2ncn(C(C)C)c2n1 | ? | ? | 4% | -31% | 0% | 19% | -11% | -13%
O=C(c1ccccn1)N1CC=C(c2ccccc2)CC1 | ? | 35µM* | -1% | -15% | ? | 131%[activator] | 1% | -3%
O=C(c1ccc(F)cc1)N1CCN(C2CCC(c3ccccc3)CC2)CC1 (stereo not given) | -22% | 7.9µM* | 19% | -17% | -1% | 24% | -1% | -21%
O=C(c1ccc(-n2cccc2)cc1)N1CCN(Cc2ccccc2)CC1 | -29% | / | 4% | 0% | 9% | 7% | -2% | -10%
CCCOC(=O)C1=C(C)NC2=C(C(=O)CC(C)(C)C2)C1c1ccc(N(C)C)cc1 (stereo not given) | ? | 35µM* | 0% | -17% | -1% | -11% | -2% | -21%

Pulled one by one from the entries so far, 6 records:
SMILES | JMJD2A Tudor | G9a inh | POLB inh | POLH inh | APEX1 inh | Pol iota inh | BLM inh | Pol kappa inh
O=C(c1ccccn1)N1CC=C(c2ccccc2)CC1 | ? | 35µM* | -1% | -15% | ? | 131%[activator] | 1% | -3%
CC(C)[C@H](CO)N(Cc1cccc(F)c1)c1nc(Nc2cccc(Cl)c2)c2ncn(C(C)C)c2n1 | ? | ? | 4% | -31% | 0% | 19% | -11% | -13%
CCCOC(=O)C1=C(C)NC2=C(C(=O)CC(C)(C)C2)C1c1ccc(N(C)C)cc1 (stereo not given) | ? | 35µM* | 0% | -17% | -1% | -11% | -2% | -21%
O=C(Nc1ccc2c(c1)OCO2)c1n[nH]c(=O)c2ccccc12 | ? | -7%[12.7 µM] | ? | -16% | -2% | ? | -12% | -24%
O=C(c1ccc(F)cc1)N1CCN(C2CCC(c3ccccc3)CC2)CC1 (stereo not given) | -22% | 7.9µM* | 19% | -17% | -1% | 24% | -1% | -21%
Brc1ccc(/C=N/Nc2ccccc2)cc1 | ? | -18%[2.33 µM] | 7% | 0% | -2% | -2% | -3% | -3%

Screening data from PubChem.
